# Screening data: PubChem, National Center for Advancing Translational Sciences (NCATS)
# TRPML1 inh = blocks the human TRPML1 channel; Q9GZU1; TRPML1-inducible cells, Ca2+ dye fluorescence, FDSS; hits give low values; inhibition of EC80 agonist-evoked calcium signal; activity change, negative = inhibition, % (no concentration beside the values); 390,000 compounds, 0.02% hits; in the data active means activity change below about -50%; inconclusive means about -30% to -50%; inactive means above about -30%;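 also: stimulus is agonist 54-4 at its EC80 concentration; % is scaled to controls: 0 for no effect and ±100 for the full control effect; compound concentration not given in the record; the text of the record puts the active cut at -80%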
#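 Tet-induced TRPML1-DL cells loaded with Ca8 no-wash calcium dye were read kinetically on FDSS. Compound addition was followed by EC80 agonist 54-4 (4 uM final); inhibition was read over 110 s.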
# ClpP mod = qHTS Assay for Activators of ClpP. ATP-dependent Clp protease proteolytic subunit (Bacillus subtilis (strain 168)), P80244. purified B. subtilis ClpP, FRET peptide cleavage, 20 min. Potency, µM (top dose mostly 57.5 µM), for inactives: at the highest dose activity change, negative = active. 340,000 compounds, 1.9% hits. AID 651965, 2013; active = well fitted falling curve with a large enough effect; inconclusive = small, poorly fitted or top-dose-only effect; inactive = no such curve, though single readings can be large or run the other way; also: potency is read from the fitted curve at half-maximal effect; the source files actives as falling curves though it sought activators and does not explain the sign; nearly all actives have a fitted effect of over 65% in size; many hits overshoot -100%
# Target sequence (P80244 whole entry, looked up): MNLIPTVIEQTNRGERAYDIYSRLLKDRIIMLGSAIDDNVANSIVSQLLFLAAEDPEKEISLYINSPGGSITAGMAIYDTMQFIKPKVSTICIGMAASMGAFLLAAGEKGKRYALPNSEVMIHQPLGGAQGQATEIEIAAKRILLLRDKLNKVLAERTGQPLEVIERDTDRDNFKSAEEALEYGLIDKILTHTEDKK
#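 ClpP 10 microg/mL final, pH 8 Tris/KCl buffer with BSA, glycerol, Tween-20; compound pinned in; FRET-FV substrate; RT 20 min; Ex320/Em430; ΔFRET vs ADEP 5.8 microM, DMSO, no enzyme.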
# TRPML1 ag = human mucolipin-1 channel agonism; Q9GZU1; TRPML1-expressing cells, Ca2+ dye fluorescence, FDSS; host cell line not named in the record; reference of the full effect not given here; activation, % (no concentration beside the values); 410,000 compounds, 0.12% hits; AID 624414; in the data active = activation above about 50%; inconclusive = about 30% to 50%; inactive = below about 30%; also: 0% is about no effect; the text of the record puts the active cut at 80%
#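 Cells: TRPML1-DL, 1X Tet inducer, ~16 h at 37 degrees C/5% CO2. Dye: ABD Ca8 no-wash + quencher, 45-90 min RT. Read: 10 s baseline, compound add, 110 s agonist phase; 54-4 EC80 (4uM final), 110 s antagonist phase.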
# Sfp PPTase inh = inhibitors of Bacillus subtilis Sfp phosphopantetheinyl transferase; Potency, µM, without a hit: max response, negative = inhibition, usual class: inhibitors; 310,000 compounds, 3.5% hits; Q9F4F7; Biochemical Sfp PPTase activity, qHTS; active = well fitted inhibition curve with a large enough effect; inconclusive = small, poorly fitted or top-dose-only effect, or another doubt; inactive = no such curve, though single readings can be large or run the other way;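 also: the enzyme is Sfp with the accession as filed and its product quenches rhodamine fluorescence; potency is read from the fitted curve at half-maximal effect; 0% = enzyme reaction without inhibitor and -100% = no enzyme wells; top concentration of the series not given in the record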
#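 Reaction rates are the 30-min fluorescence difference (ex 525, em 598 nm) in wells containing 15 nM Sfp, 5 uM rhodamine-CoA and 12.5 uM BHQ-2-YbbR at pH 7.6 with 10 mM MgCl2.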
# PINK1 expr mod = PINK1 expression modulation; 410,000 compounds, 0.2% hits; Potency, µM (top dose mostly 76.6 µM), for inactives: at the top dose activation (PINK1 increase), most hits filed as activators; PINK1 immunofluorescence, high-content cytometry, 24 h; active = well fitted activation curve with a large enough effect; inconclusive = small, poorly fitted or top-dose-only effect; inactive = flat fitted curve, though single readings scatter; cell line not stated here;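 also: potency is read from the fitted curve at half-maximal effect; % of control where 0% means no effect; nearly all actives have a fitted effect of over 65% in size; a mitochondrial uncoupler was the plate control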
#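 A stable cell line was treated with compounds at 5 concentrations for 24 hours, with CCCP as control. PINK1 levels and mitochondrial localization were measured by immunofluorescence with mitochondrial, cell and nuclear markers after fixation, read by laser-scanning cytometry.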
# TRPV1 potentiator = potentiators of human vanilloid receptor 1 (TRPV1); 320,000 compounds, 0.02% hits; Q8NER1; potentiation, % at 8.33 µM; TRPV1-expressing cells, Fluo-8 calcium influx, capsaicin EC20 potentiation; host cell line not named in the record; control for the full effect not named in the record; active means potentiation above 80%; inconclusive means 30% to 80%; inactive means below 30%; also: 0% is about no effect
# Target sequence (Q8NER1 whole entry, looked up): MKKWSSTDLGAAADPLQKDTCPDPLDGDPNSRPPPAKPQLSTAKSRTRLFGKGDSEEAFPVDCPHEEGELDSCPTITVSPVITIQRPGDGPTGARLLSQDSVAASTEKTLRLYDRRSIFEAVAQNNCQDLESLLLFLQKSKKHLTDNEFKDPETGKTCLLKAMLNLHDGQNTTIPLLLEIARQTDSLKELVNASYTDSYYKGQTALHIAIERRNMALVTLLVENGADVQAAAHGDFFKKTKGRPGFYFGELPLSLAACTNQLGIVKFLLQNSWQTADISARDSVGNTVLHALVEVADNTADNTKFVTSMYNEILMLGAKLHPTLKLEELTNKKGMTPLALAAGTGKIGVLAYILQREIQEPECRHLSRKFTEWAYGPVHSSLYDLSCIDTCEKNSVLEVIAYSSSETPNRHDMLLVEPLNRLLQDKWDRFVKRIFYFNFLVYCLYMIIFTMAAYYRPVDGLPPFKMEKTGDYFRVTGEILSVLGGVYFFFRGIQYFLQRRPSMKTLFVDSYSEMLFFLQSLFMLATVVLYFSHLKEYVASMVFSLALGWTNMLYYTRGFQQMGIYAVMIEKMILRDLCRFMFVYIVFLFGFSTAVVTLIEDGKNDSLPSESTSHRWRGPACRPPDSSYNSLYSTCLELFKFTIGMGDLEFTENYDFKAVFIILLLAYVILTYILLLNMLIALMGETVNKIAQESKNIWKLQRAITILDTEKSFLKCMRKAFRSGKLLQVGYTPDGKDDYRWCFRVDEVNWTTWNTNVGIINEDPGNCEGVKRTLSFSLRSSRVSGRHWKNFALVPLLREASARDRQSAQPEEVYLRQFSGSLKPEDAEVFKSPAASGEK
#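 TRPV1-expressing cells were cultured overnight at 35.5C and loaded with Fluo-8 calcium dye for 40 to 90 min at room temperature. After a 10 s baseline, compound was added and calcium influx was read kinetically for 3 min (ex 480/em 520 nm).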
# Menin MLL FP FL = inhibitors of human menin-MLL interaction, wild-type MLL peptide | Fluorescence polarization, fluorescein-MLL peptide displacement from menin | FP activity change, % at 61.4 µM | 290,000 tested, under 10 active | AID 1766; inconclusive = falling polarisation curve, or a change in total fluorescence; inactive = total fluorescence flat and polarisation flat or rising; no compound was filed as active; the % refers to the polarisation; negative = inhibition;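 also: % of control where 0% means no effect; inhibitors lower the polarisation; unlabelled MLL peptide was the positive control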
# The depositor's hits bear a star; ? = inconclusive; . = no result given; & = joins results of further samples; [ ] = another dose, or the depositor's remark.
SMILES,TRPML1 inh,ClpP mod,TRPML1 ag,Sfp PPTase inh,PINK1 expr mod,TRPV1 potentiator,Menin MLL FP FL
O=C(NCc1ccc(F)cc1Cl)C1CCN(S(=O)(=O)N2CCC3(CC2)OCCO3)CC1,-1.2,-1.2%,-0.4,20.4%,-0.8%[38.3 µM],0.5,2.2
Cc1nc2cc(-c3ccc(Cl)cc3)nn2c(NCCN(C)C)c1C,-2.4,.,-0.3,13.9%,-0.1%,-8.8,4.0
C=CC[C@@H](CC(=O)NCCO)C(=O)NC[C@H](OC(=O)[C@@H](CC=C)CC(=O)OC(C)(C)C)c1ccccc1,-25.2,-2.2%,0.0,.,-0.5%,.,.
COc1ccc(OC)c(S(=O)(=O)N2CCCC(C(=O)N3CCCC3)C2)c1 (configuration not stated),-7.2,-2.7%,0.5,-6.1%,4.1%,-2.1,.
Cc1cc(NS(=O)(=O)c2cn(C)nc2C)no1,14.9,2.3%,-0.4,10.0%,-0.8%,4.9,-0.9
Cc1ccccc1OCC(=O)N/N=C/c1ccc(N2CCOCC2)o1,2.8,-4.2%,0.3,20µM*,-1.2%,-4.3,.
Cc1cc(C)cc(N(CC(=O)NCCSCc2ccco2)S(C)(=O)=O)c1,-22.3,.,0.3,9.9%,-0.7%,14.5,6.1
CC(=O)N1CCN(c2ccc(Oc3nnnn3-c3ccccc3)cc2)CC1,0.6,-0.9%,-0.9,-0.8%,-1.4%,0.0,1.6
S=c1[nH]nc(SCc2ccccc2)c2[nH]cnc12,2.4,.,-0.2,.,-1.1%,.,.
CCC1(c2ccccc2)NC(=O)N(CC(=O)Nc2cc(S(=O)(=O)N3CCCCCC3)ccc2OC)C1=O (configuration not stated),-9.7,-1.1%,1.3,.,3.2%,8.8,.
O=C(Nc1ccc2c(c1)CCC2)c1ccccc1,-8.4,-4.5%,0.1,9.6%,3.8%,-21.2,2.0
Oc1ccc2ccccc2c1CNc1cnc2ccccc2c1,-4.7,-2.3%,0.7,28.2µM*,.,6.1,6.0
Clc1ccc(-c2c[n+]3c(n2-c2ccccc2)SCC3)cc1,3.0,1.6%,-0.5,0.1%,-1.1%,5.3,2.7
CCC(=O)Nc1ccc2c(c1)ncn2-c1ccccc1OC,-9.1,-1.6%,0.0,-23.2%,-0.3%,-0.1,2.2
CCOc1ccccc1-c1nc(-c2cccc(Br)c2)no1,28.4,-20.4%,2.0,8.7%,?,2.5,0.9
CC(C)OC(=O)NCCOC(=O)Nc1ccccc1Cl,-7.8,.,2.2,13.1%,-0.9%,-15.4,6.7
CCOc1ccc(NC(=O)c2sc(NC(C)=O)c(C(=O)OC)c2C)cc1,6.3,.,-0.9,18.4%,7.3%,-3.2,-0.3
Cc1ccc(C)c(NC(=O)CN(C)C(=O)Cc2ccccc2)c1,4.2,0.3%,0.0,14.9%,0.8%,4.9,4.3
CCN1C(=O)CSC1=Nc1cccc(C(=O)O)c1,0.5,1.5%,-0.2,14.6%,0.8%,0.2,-4.9
O=C1CN(CC(=O)N2CCOCC2)c2ccccc2O1,.,.,.,3.55µM*,.,?,-0.6
COc1ccccc1N1CCN(S(=O)(=O)c2ccc([N+](=O)[O-])cc2)CC1,0.5,-0.5%,-0.2,.,1.2%,.,.
O=C(CSc1nc2ccccc2o1)N1CCN(C(=O)c2ccco2)CC1,-8.1,-0.6%,-0.2,3.5%,-1.6%,0.1,-5.5
O=C(CCNC(=O)N1CC(=O)Nc2ccccc21)NCc1cccc(C(F)(F)F)c1,1.0,0.1%,-0.1,.,1.0%,.,.
Cn1c(C(=O)NCC2CCCO2)cc2oc3ccccc3c21 (configuration not stated),1.1,-9.7%,-1.4,8.7%,-1.7%,-19.3,2.3
CN(C(=O)c1cccc(NC(=O)Cc2cccc(NC(=O)C3CCCN(C(=O)C4CCCCC4)C3)c2)c1)C1CC1 (configuration not stated),81.3,0.9%,1.7,.,-0.5%,.,.
C=CCn1c(-c2ccc(Cl)cc2)cnc1SC(C)C(N)=O (configuration not stated),4.5,-0.1%,-0.1,-4.0%,1.9%,-6.0,-8.0
CCOc1ccc2nc(N(CCN(C)C)C(=O)c3ccc4c(c3)CCCC4)sc2c1,7.5,-28.1%,-0.5,50.1µM*,?,-2.9,.
CC(=O)N1CCN(c2ccccc2NC(=O)COc2ccccc2C)CC1,-1.9,-2.1%,1.4,6.6%,-0.3%,16.3,2.4
O=C(NCCCNC(=O)c1cc(Cl)ccc1Cl)c1ccco1,10.9,.,1.3,16.7%,-2.4%,6.2,5.1
CCOC(=O)c1sc(NC(=O)CC2OC(=O)c3ccccc32)nc1C (configuration not stated),-4.5,?,0.1,.,-0.1%,2.3,.
COc1cc(-c2noc(C)c2C#Cc2ccccn2)cc(OC)c1OC,-5.1,-3.3%&-0.7%,0.2&3.9,-7.1%,5.0%,12.4,-12.1
COc1ccc(C(=O)COC(=O)CCc2nc3ccccc3[nH]c2=O)cc1Br,2.0,.,-0.3,1.3%,19.4%,8.2,5.3
Oc1cccc(Nc2ncnc3sc4c(c23)CCCC4)c1,-10.9,-1.7%,0.3,.,-3.5%,.,.
CCCN1C(=O)CSC1=Nc1ccccc1,1.1,0.5%,0.4,-2.2%,2.2%,3.9,-2.4
O=C(Nc1ccc(-c2nnc(-c3ccccc3)o2)cc1)C(F)(F)F,-22.9,-3.6%,0.8,-5.0%,3.2%,-2.3,7.3
Cc1cc(NC(=O)CS(=O)(=O)c2cn(Cc3cccc(F)c3)c3ccccc23)no1,1.9,0.0%,0.7,-9.8%,3.0%,11.3,-1.6
CCCn1cc(S(=O)(=O)c2ccc(CC)cc2)c(=O)c2cc(F)c(N(CC)CC)cc21,-16.1,?,0.1,.,-1.1%,.,.
Cc1cc(C)nc(NS(=O)(=O)c2ccc(NC(=O)c3cc(=O)c4ccccc4o3)cc2)n1,-2.1,-0.6%,-0.9,5.9%,0.9%,2.8,.
CCC(SCC(=O)OC)C(=O)Nc1nnc(C(C)C)s1 (configuration not stated),-7.7,-2.2%,0.3,-15.7%,0.7%,-4.2,1.8
COc1ccc(NS(=O)(=O)c2cc(NC(=O)CC(C)(C)C)ccc2N2CCCC2)cc1,13.7,-5.7%,2.2,.,0.1%,5.9,.
COc1cccc(Cc2nc3ccccc3nc2SCC(=O)N2CCCCC2C)c1 (configuration not stated),52.6,-7.2%,2.3,.,5.2%,.,.
Nc1cc(=O)[nH]c(SCC(=O)Nc2cccc(Cl)c2)n1,-8.8,1.6%,0.1,11.9%,.,3.0,1.1
O=C(CCN1C(=O)/C(=C/c2ccccc2)SC1=S)NCCCN1CCOCC1,11.8,.,-0.6,-3.8%,2.9%,13.5,4.8
N#C/C(=N\Nc1ccc(Cl)cc1)C(=O)c1ccccc1,33.1,-1.0%,1.6,5.5%,?,5.9,2.0
COC(=O)c1cc(S(=O)(=O)N2CCN(c3cccc(C)c3C)CC2)c[nH]1,45.6,-0.6%,1.6,2.0%,2.9%,-10.0,0.2
CN(C)CCNC(=O)CN1C(=O)CCn2nc(-c3cn(C)c4ccccc34)cc21,-15.4,-10.5%,-0.2,.,0.2%,.,.
CCC(=O)Nc1cc(C)c(NC(=O)CCc2ccccc2)cn1,-12.3,-5.9%,-0.8,3.1%,-0.3%,7.8,?
Cc1ccc(NC(=S)NNc2ncc(C(F)(F)F)cc2Cl)c(C)c1,-12.3,0.4%,-1.1,9.8%,6.8%,9.1,-1.3
Cn1ccsc1=NC(=O)c1ccc(CS(C)(=O)=O)cc1,10.7,.,0.1,18.8%,0.7%,7.4,-1.2
Oc1ccccc1CNc1nc2ccccc2n1CCN1CCCCC1,15.1,0.9%,1.2,1.3%,3.4%,29.7,-0.9
COc1ccc(C)cc1S(=O)(=O)NCC(c1ccco1)N1CCc2ccccc2C1 (configuration not stated),23.0,-4.3%,0.1,.,0.1%,9.1,.
O=C(NCCNC(=O)c1ccco1)c1ccco1,-3.5,.,1.1,11.2%,0.8%,-14.3,-1.4
FC(F)(F)c1cccc(NC(=S)Nc2cccc(NC(=S)Nc3cccc(C(F)(F)F)c3)n2)c1,-12.9,.,0.5,20µM*,?,.,0.7
Cc1cc(N2CCCCCC2)nc2ccc(F)cc12,-0.3,28.2µM*,6.6,.,5.1%[38.3 µM],.,.
COc1ccc(C)cc1-n1[nH]nnc1=S,32.3,.,-0.8,-81.8%,-2.8%,19.9,-1.7
CC(=O)c1ccc(S(=O)(=O)N2CCCC(N(C)CCc3ccccn3)C2)cc1 (configuration not stated),0.3,-6.0%,0.4,5.7%,-1.2%,6.7,.
CCC1(C)Cc2c(sc3nnn(CC(=O)Nc4ccccc4C)c(=O)c23)CO1 (configuration not stated),-1.6,0.3%,-0.1,-21.0%,-2.2%[38.3 µM],-47.0,2.1
CCCN(CC(=O)Nc1ccccc1OC)C(=O)CN1C(=O)NC2(CCCCC2)C1=O,-7.1,-2.5%,0.7,.,2.2%,-14.1,.
COc1ccc(Cl)cc1N1C(=NC(=O)C2CCCCC2)SC2CS(=O)(=O)CC21 (configuration not stated),10.6,-2.3%,0.2,2.2%,-0.2%,4.4,-6.8
CC(C)Oc1ccc(N2CC(C(=O)Nc3ccc4c(c3)OCO4)CC2=O)cc1 (configuration not stated),35.2,-0.1%,1.2,14.5%,7.8%,.,0.9

# The list goes on.
SMILES,TRPML1 inh,ClpP mod,TRPML1 ag,Sfp PPTase inh,PINK1 expr mod,TRPV1 potentiator,Menin MLL FP FL
Cc1c(OCC(=O)NC(Cc2ccc(Cl)cc2)C(=O)O)ccc2c(-c3ccccc3)cc(=O)oc12 (configuration not stated),.,-7.7%,.,13.8%,1.7%,-15.5,-1.3
O=C(N/N=C/c1ccncc1)c1ccncc1,7.0,.,0.0,.,2.5%,.,.
O=C(Nc1ccc(Cl)cc1)C1C2C=CC3(O2)C1C(=O)N(CCCN1CCCCC1)C3C(=O)NC1CCCCC1 (configuration not stated),-4.4,.,0.1,5.2%,1.8%,-2.6,1.9
Cc1nn(-c2ccccc2)c(C)c1/C=N/NC(=O)c1ccc(F)cc1,17.4,-11.2%,-1.0,.,0.6%,.,.
O=C(CSCc1nc2ccccc2[nH]1)N1CCN(c2cccc(Cl)c2)CC1,0.0,-2.1%,1.7,-0.1%,4.9%[38.3 µM],-5.5,1.4
O=C1CC(N2CCSCC2)C(=O)N1c1ccc(Br)cc1 (configuration not stated),15.5,-0.8%,1.2,0.4%,-0.4%,-2.4,3.3
